Sa growth inh: S. aureus growth inhibition at 42 and 30 °C, primary screen, LtaS inhibitor project, RN4220, two temperatures | OD600, 20 h, 42 °C; stronger effect = lower value | relative growth, % (concentration not given with the values) | hit rate 0.53% among 170,000 | AID 720641, 2013;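 active = growth at 42 °C up to 50% and 20 or more points under that at 30 °C, or under 10% at both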;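 also: 300 nL library stock went into each well; scaled to the means of positive and negative controls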
GIV-Gai inh: inhibitors of GIV peptide binding to Galpha-i3, primary screen, biochemical, fluorescence polarization, FITC-GIV GBA peptide, rat Galphai3. Guanine nucleotide-binding protein G(i) subunit alpha-3 (Rattus norvegicus), P08753. percent of control (FP), % (test concentration not listed). hit rate 0.42% among 210,000. 90 min; stronger effect = lower value; scaled: aluminum fluoride 0%, vehicle 100%;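 active = replicate mean at 85% of control or lower, very high polarization wells dropped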;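 also: wells of about 15 µL received 100 nL stock; the first replicate is given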
Target sequence (P08753 whole entry, looked up): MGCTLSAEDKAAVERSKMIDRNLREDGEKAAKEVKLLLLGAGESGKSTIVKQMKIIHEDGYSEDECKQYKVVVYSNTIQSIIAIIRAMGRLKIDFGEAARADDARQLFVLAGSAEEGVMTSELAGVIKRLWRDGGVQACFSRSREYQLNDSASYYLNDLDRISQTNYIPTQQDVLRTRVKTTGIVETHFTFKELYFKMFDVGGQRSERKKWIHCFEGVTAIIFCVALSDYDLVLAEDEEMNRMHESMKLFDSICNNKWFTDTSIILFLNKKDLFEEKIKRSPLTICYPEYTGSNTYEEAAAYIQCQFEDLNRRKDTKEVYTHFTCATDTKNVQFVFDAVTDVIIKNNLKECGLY
HCMV UL50-53 inh: inhibitors of HCMV UL50-UL53 interaction, biochemical, HTRF | AID 1918969, 2023 | hit rate 0.15% among 190,000 | normalized percent inhibition | HCMV UL50-UL53 nuclear egress complex (human cytomegalovirus) | inhibition, % (test concentration not listed);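 active = both replicates at 50% or more, plus weaker picks with an unusually low signal ratio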;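 also: stock transfer was 100 nL into about 20 µL; 0% = negative control wells and 100% = wells with untagged competitor protein; inactives centre near -12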
Sa growth inh second temp: further read-out of Sa growth inh, marked with its call; relative growth, %; measured here: growth at 30 °C;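 optical density after 20 h as mean of two plates; 100% = untreated growth and lower means inhibition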
Active calls of the source: *; . = not tested or not shown; & = joins results of further samples.

The opening 3 entries, ahead of the listing:
SMILES | Sa growth inh | Sa growth inh second temp | GIV-Gai inh | HCMV UL50-53 inh
CC(C)(C)OC(=O)Cn1nc(C(=O)O)c2ccccc2c1=O | 81 | 91 | . | -36
NC(=O)CSc1nc2ccccc2c(=O)n1Cc1ccc(Cl)cc1 | 91 | 94 | . | -14
CCCCn1c(=N)n(CC(O)c2ccccc2)c2ccccc21 (configuration not stated) | 96 | 91 | 104 | 2

The whole of this part, previewed entries included:
SMILES | Sa growth inh | Sa growth inh second temp | GIV-Gai inh | HCMV UL50-53 inh
CC(C)(C)OC(=O)Cn1nc(C(=O)O)c2ccccc2c1=O | 81 | 91 | . | -36
NC(=O)CSc1nc2ccccc2c(=O)n1Cc1ccc(Cl)cc1 | 91 | 94 | . | -14
CCCCn1c(=N)n(CC(O)c2ccccc2)c2ccccc21 (configuration not stated) | 96 | 91 | 104 | 2
Cc1ccc(C)c(NC(=O)C2CCCN2S(=O)(=O)c2ccc3c(c2)CCCC(=O)N3)c1 (configuration not stated) | 82 | 75 | 99 | .
COc1ccc(C)cc1NC(=O)CSc1nnc(Cn2nnc3ccccc32)n1C | 111 | 85 | 105 | -47
O=C(O)c1nn(Cc2ccccc2)c(=O)c2ccccc12 | 105 | 98 | . | -25
O=C(CN1CCN(Cc2ccccc2Cl)S1(=O)=O)Nc1ccc(Cl)cc1F | . | . | 104 | 0
COc1cccc(CN2C(=O)c3ccccc3Sc3ccc(C(=O)NCc4ccccc4)cc32)c1 | 104 | 92 | 104&105 | -16&-17
COc1ccc(/C=C2\N=C(c3ccccc3)N(c3nc4ccc(C(=O)O)cc4s3)C2=O)cc1 | 88 | 71 | . | -14
CSC(SC)=C1C(=O)c2ccccc2N(C)S1(=O)=O | 102 | 86 | 104 | -11
COc1cccc(C2CC(c3cccs3)=NN2C(=O)CN2CCOCC2)c1OC (configuration not stated) | 93 | 87 | 105 | -49
O=C(CCc1nc(-c2ccccc2F)no1)NCCN1CCOCC1 | 90 | 82 | 105 | -25
COc1cccc(N2CCN(c3cc(C)nc4ncnn34)CC2)c1 | . | . | 100 | -20
COc1ccc(CNS(=O)(=O)c2csc(C(N)=O)c2)cc1OC | 90 | 87 | 97 | .
CN1CCN(C(=O)c2cc(-c3cccnc3)n(-c3ccc(F)cc3)n2)CC1 | . | . | 98 | -4
COc1ccccc1C(=O)Nc1ccccc1N1CCN(C)CC1 | 73 | 39 | 98 | -1
Cc1ccn2cc(CCNS(=O)(=O)c3ccc(Cl)s3)nc2c1 | 116 | 84 | 104 | .
C=CCc1c(C)nc(SC(C)C)[nH]c1=O | 106 | 109 | 107 | 5
CCC(C(=O)OCn1nnc2ccccc2c1=O)c1ccccc1 (configuration not stated) | 76 | 77 | 98 | .
CC(/C=C/c1ccc2c(c1)OCO2)=N\NC(=O)c1ccccn1 | 105 | 113 | 100 | -23
Fc1cccc(-c2nn3c(-c4ccc5ccccc5n4)nnc3s2)c1 | . | . | 108 | -41
CC[N+](CC)(CC)CCOc1ccc(/C=C/c2ccccc2)cc1 | . | . | 101 | -54&-119
COc1cc2c(-c3ccc(C)cc3)nc3c(c(C)nn3-c3ccccc3)c2cc1OC | 104 | 87 | 106 | -36
O=C(Nc1ccc(Cl)c(Cl)c1)c1cnn2c1NC(c1ccc(Br)cc1)CC2C(F)(F)F (configuration not stated) | . | . | 89 | -22
CCOC(=O)c1c(O)c2scc(C)c2[nH]c1=O | 87 | 90 | 101 | -14
Cc1ccc(-n2ncc(C(=O)NCc3ccccc3)c2C2CCN(C(=O)OC(C)(C)C)CC2)cc1 | 87 | 93 | 107 | .
O=S(=O)(Nc1ccccc1N1CCOCC1)c1ccc(Cl)s1 | 95 | 94 | . | -19
O=C(CNC(=O)c1ccccc1)ON1C(=O)CCC1=O | 90 | 98 | . | 2
COc1ccc(CCNC(=O)CSc2nc(C)cc(C)n2)cc1OC | 111 | 82 | 94 | .
O=C(Nc1ccccc1)C(O)C(O)C(=O)Nc1ccccc1 (configuration not stated) | 125 | 76 | . | -3
COc1ccc(S(=O)(=O)[C@H]2CS(=O)(=O)C[C@@H]2N2CCCC2)cc1 | . | . | 107 | -19
S=C(NNc1nc(N2CCCCC2)nc(N2CCCCC2)n1)NC1CCCCC1 | 93 | 86 | 99 | -44
COC(=O)c1cc(S(=O)(=O)CC(c2ccccc2)N2CCCC2)c(Cl)cc1N1CCCC1 (configuration not stated) | 108 | 85 | 101 | -10
O=C(c1ccc(CS(=O)c2ccccc2)o1)N1CCN(c2ccccc2)CC1 (configuration not stated) | 99 | 93 | 109 | .
O=C(CN1CCOCC1)OCCCc1ccccc1 | 103 | 87 | 105 | -21
CC(C)c1ccc(NC(=O)C2(C)Cc3ccccc3C(=O)O2)cc1 (configuration not stated) | 108 | 81 | 107 | -19
Cc1ccc(C(=O)CSc2nnc(CSc3nc(C)cc(C)n3)n2C)cc1 | 120 | 102 | 103 | -14
Nc1nc(-c2ccccc2)c(CC(=O)O)s1 | 100 | 103 | 105 | 6
Cn1ccnc1C(O)c1ccco1 (configuration not stated) | 96 | 90 | . | -18
FC(F)(F)c1ccc(Sc2cccs2)nc1 | 86 | 83 | 97 | 0
CS(=O)(=O)NCc1ccc(C(=O)NCc2ccccc2)cc1 | 101 | 88 | . | -7
COC(=O)CN1CCN(C(=O)c2ccc(F)cc2)c2ccccc2C1 | 103 | 91 | 105 | -7
COc1ccccc1CC(=O)N1CCCC1 | 106 | 113 | 99 | -12
COc1ccc(OCc2nc3ccccc3n2C(C)C)cc1 | 97 | 78 | 112 | -17
COc1ccc(CNCc2c(C(=O)O)c(C)n(-c3ccccc3)c2C)c(OC)c1 | . | . | 120 | -15
Cc1ccc(C(=O)Oc2ccc(C3Oc4ccccc4C4CC(c5ccc(C)cc5)=NN43)cc2)cc1 (configuration not stated) | . | . | 93 | -22
Cc1ccc2nc(NC(=O)CSc3[nH]c(=O)ncc3C)sc2c1 | 94 | 87 | 105 | .
COc1ccc(OC)c(Nc2nc3nonc3nc2N2CCC(C)CC2)c1 | 115 | 91 | 101 | .
COc1ccc(S(=O)(=O)Cc2ccc(C(=O)NCCCN3CCc4ccccc4C3)o2)cc1 | 99 | 87 | 100 | 6
N/C(=N/c1nc(-c2ccccc2)cc(=O)[nH]1)Nc1ccccc1 | 110 | 90 | 104 | -10
COc1cccc(NS(=O)(=O)c2ccc3[nH]cc(C(=O)N(C)C4CCCCC4)c(=O)c3c2)c1 | 113 | 85 | 105 | .
Cc1cccc(-n2c(C)cn3c4c(=O)n(C)c(=O)n(C)c4nc23)c1 | 108 | 89 | 105 | -6
Cc1cc(-c2ccc(C(C)C)c(S(=O)(=O)NC3CCCC3)c2)on1 | 92 | 84 | 98 | 11
Cc1cc(=O)n2[nH]c(CN(C(=O)c3ccc(F)cc3)c3ccc(F)cc3)nc2n1 | . | . | 105 | -16
CS(=O)(=O)c1ccc(NC(=O)CCCc2nc3ccccc3c(=O)[nH]2)cc1 | 85 | 92 | . | -14
OCCCc1n[nH]c(=S)n1-c1ccccc1 | 105 | 80 | 98 | -18
Cc1ccccc1-c1noc(-c2ccc(N3CCN(C)CC3)c([N+](=O)[O-])c2)n1 | 102 | 88 | 104 | -31
CCC(C)(O)c1nnn(-c2nonc2N)c1C(C)(O)CC (configuration not stated) | 98 | 92 | 102 | -12
Cc1nc2nc(N(Cc3c(F)cccc3Cl)S(=O)(=O)c3ccccc3)nn2c(C)c1Cl | . | . | 98 | 3
N#C/C(C(=O)c1c[nH]c2ccccc12)=C1\SCC(=O)N1c1ccccc1 | 108 | 92 | 112 | -60
(cont.)
SMILES | Sa growth inh | Sa growth inh second temp | GIV-Gai inh | HCMV UL50-53 inh
Cc1ccccc1NC(=O)CSc1nc2ccc(NC(=O)c3cccs3)cc2s1 | 97 | 78 | 102 | 10
CCn1ncc(NC(=S)Nc2ccc3c(c2)OCO3)c1C(N)=O | 103 | 91 | 110 | -9
Cc1cccc(NC(=O)Cn2cc(C(=O)C3CCCCC3)c3ccccc32)c1C | 77 | 87 | 99 | -33
O=C(Cn1ncc2c3ccccc3n(Cc3ccc(F)cc3)c2c1=O)NCCCN1CCCCC1 | 104 | 88 | 101 | -8
CCCCNC(=O)Nc1ccc(OC)c(OC)c1 | 94 | 93 | . | -10
COc1cccc(Cl)c1NC(=O)N1CCN(c2ccnc3cc(Cl)ccc23)CC1 | 103 | 83 | 103 | -21
CN(C)/N=C/c1cc(Br)c(O)c(Br)c1 | 49 | 43 | . | -33
CN(C)CCNC(=O)CN1CCN(Cc2ccccc2)C(=O)C1=O | . | . | 104 | 17
COc1ccc(-c2cn3c(n2)sc2cc(C(=O)NC(C)C45CC6CC(CC(C6)C4)C5)ccc23)cc1 (configuration not stated) | 107 | 97 | 109 | .
CC1(C)Cc2ccccc2C(c2sc3nc(-c4cccs4)cc(C(F)(F)F)c3c2N)=N1 | 92 | 87 | . | -10
COc1ccccc1NC(=O)C(NC(=O)c1ccccc1NC(=O)c1ccccc1)C(C)C (configuration not stated) | 94 | 87 | 98 | .
O=S(=O)(/N=C(\Oc1ccccc1)c1ccccc1)c1ccc(Br)cc1 | 94 | 92 | 100 | .
CCOc1ccc(Nc2nc(C)c3ncn(-c4ccc(OCC)cc4)c3n2)cc1 | . | . | 107 | -29
CN(C)c1nc(Cl)nc(NCCOc2ccccc2)n1 | 94 | 108 | 94 | 10
CC1CCc2cc(F)ccc2N1C(=O)c1ccc2nccnc2c1 (configuration not stated) | 90 | 100 | 113 | -19
Cc1ccc(-c2nc(CN3CCN(C(=O)c4ccccc4Br)CC3)c(C)o2)cc1 | . | . | 104 | 0
CN(C1CCCCC1)S(=O)(=O)c1ccc2c(c1)c(=O)c(C(=O)N1CCCCC1)cn2C | 99 | 89 | 104 | -26
O=C(CSc1nc2ccc(N=Cc3cc(Br)ccc3O)cc2s1)Nc1ccccc1 | 82 | 97 | . | 5
CCOC(=O)c1c(C)oc2c1c(/C=N/N1CCOCC1)c(O)c1ccccc12 | 85 | 80 | 108 | -29
Cc1cc(C(=O)COC(=O)CCN2C(=O)C3CC=CCC3C2=O)c(C)n1C (configuration not stated) | 79 | 88 | . | -23
CC1=NN(c2ccc(Cl)c(C(=O)O)c2)C(=O)/C1=C\c1ccc(-c2ccccc2C(=O)O)o1 | . | . | 91 | -40
CCCc1c(C(=O)OCC)[nH]c2c1C(=O)CCC2 | 79 | 80 | 106 | -20
CN(Cc1ccccc1)S(=O)(=O)c1ccc2c(c1)C(=O)NCC(=O)N2 | 104 | 86 | 105 | 4
CS(=O)(=NC(=O)NC(=O)c1ccc(Cl)cc1)c1ccc(C(F)(F)F)cn1 (configuration not stated) | 108 | 98 | 99 | 11
CCSc1nc2sc3c(c2c(=O)n1-c1ccc(OC)cc1)CC(C)(C)OC3 | . | . | 103 | 2
CCN(CC)C(=O)Cn1cc(SCC(=O)N(C(C)C)C(C)C)c2ccccc21 | 109 | 93 | 106 | .
Cc1ccc(S(=O)(=O)/N=C(\N)Nc2nc3ccccc3s2)cc1 | 71 | 60 | . | -8
O=C(CSc1nnnn1C1CCCC1)c1ccc2c(c1)OCCO2 | 95 | 74 | 98 | 2
O=C(OCc1csc(Nc2ccccc2)n1)c1cccc(S(=O)(=O)N2CCOCC2)c1 | 108 | 77 | . | -6
CC(CCc1ccccc1)NC(=O)Cc1noc2ccccc12 (configuration not stated) | 97 | 88 | 97 | .
Cc1noc(C)c1-c1nnc(-c2ccc(OC(F)(F)F)cc2)o1 | 95 | 83 | 100 | -26
O=C(COc1ccccc1Br)Nc1ccc(C(=O)OC2CCCCC2)cc1 | 85 | 87 | . | -14
c1cc2nncn2nc1N1CCOCC1 | 93 | 93 | 97 | .
CCOc1ccc(NC(=O)c2nn(C)c(C(F)(F)F)c2Cl)cc1 | . | . | 101 | 18
Cc1ccc(NC(=O)CSc2nc(=O)n(Cc3ccco3)c3c2CCC3)cc1F | 99 | 69 | 106 | .
O=C(O)CCC(=O)c1ccco1 | 76 | 79 | 104 | -2
Cc1cc(C)nc(SCC(=O)N2CCCC2c2cccs2)n1 (configuration not stated) | 79 | 90 | . | -33
CN(CCOc1ccc(F)cc1)Cc1ccccc1 | 95 | 75 | . | -26
C[C@@H](C(=O)Nc1nc2ccccc2[nH]1)N1C(=O)C2CC=CCC2C1=O (some centres not stated) | 98 | 93 | . | -24
CC(C)CN(CC(C)C)c1nnc(NC(=O)Nc2ccccc2)s1 | 94 | 85 | 102 | -29
Cn1cnnc1SCNC(=O)c1cc2ccccc2o1 | 101 | 92 | . | -34

Five compounds from above, sorted by SMILES length, rising:
SMILES | Sa growth inh | Sa growth inh second temp | GIV-Gai inh | HCMV UL50-53 inh
c1cc2nncn2nc1N1CCOCC1 | 93 | 93 | 97 | .
CCCc1c(C(=O)OCC)[nH]c2c1C(=O)CCC2 | 79 | 80 | 106 | -20
CC(CCc1ccccc1)NC(=O)Cc1noc2ccccc12 (configuration not stated) | 97 | 88 | 97 | .
O=C(COc1ccccc1Br)Nc1ccc(C(=O)OC2CCCCC2)cc1 | 85 | 87 | . | -14
CS(=O)(=NC(=O)NC(=O)c1ccc(Cl)cc1)c1ccc(C(F)(F)F)cn1 (configuration not stated) | 108 | 98 | 99 | 11
